# Screens (PubChem BioAssay)
# HNF4A DNA FP – change in binding of human HNF4A to DNA, primary screen, biochemical, fluorescence polarization, FITC-DNA. actives 0.3% (n = 360,000). activity change, % at 10 µM. 1 h; in the data active means activity change above about 30%, passing the limit was not always enough;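 further: controls were the assay level and a saturating level of protein; the project sought stronger binding though the title names inhibitors; some compounds called inactive have numbers as strong as hits; positive values seem to mean higher polarization but the record does not say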
# Target sequence (P41235 whole entry, looked up): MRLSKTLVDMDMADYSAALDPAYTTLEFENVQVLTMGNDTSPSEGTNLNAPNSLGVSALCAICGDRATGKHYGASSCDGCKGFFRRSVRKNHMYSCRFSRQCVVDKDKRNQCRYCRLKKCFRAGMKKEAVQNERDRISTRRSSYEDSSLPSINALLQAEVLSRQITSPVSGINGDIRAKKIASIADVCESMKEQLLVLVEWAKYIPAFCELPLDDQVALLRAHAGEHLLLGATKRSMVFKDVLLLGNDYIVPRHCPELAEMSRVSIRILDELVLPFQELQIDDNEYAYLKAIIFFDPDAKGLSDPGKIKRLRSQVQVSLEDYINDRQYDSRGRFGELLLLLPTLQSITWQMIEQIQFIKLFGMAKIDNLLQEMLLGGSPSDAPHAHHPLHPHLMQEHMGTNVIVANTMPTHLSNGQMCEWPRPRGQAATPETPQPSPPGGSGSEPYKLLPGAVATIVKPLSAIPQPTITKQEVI
# * = called active by the depositor.
HNF4A DNA FP	SMILES
-0.1	O=S1(=O)CC(N2CC=CC2)CN1Cc1cn(Cc2ccccc2)nn1 (stereo not given)
-3.4	COc1ccc(Cl)cc1-c1noc([C@@H]2O[C@H](CO)[C@@H](O)[C@H]2O)n1
4.4	Cc1cccc(-c2ccc([N+](=O)[O-])cc2CN2CCN(c3ncc(Cc4ccccc4)cn3)CC2)c1
-1.2	CCOC(=O)[C@]12CCCC=C1N(Cc1ccccc1)C(=O)[C@H](CC(=O)N1CCCCCC1)C2
-0.9	COc1ccccc1CNC(=O)c1cc(-c2cc(F)ccc2OC(C)C)n[nH]1
-3.2	Cc1cc(C)cc(Cn2cc(CN3CC(N(C)C)CS3(=O)=O)nn2)c1 (stereo not given)
-1.5	O=C1NC[C@H](CCCCN2C[C@H](Cc3ccc(O)cc3)N(CCC3CCCCC3)C(=O)C2=O)N(CCc2ccc(O)cc2)C1=O
2.2	CC1(C(=O)Nc2cccc3cccnc23)CCN1C(=O)CCC1CCCC1 (stereo not given)
1.0	C[C@@H]1O[C@H](C2CCCCC2)Cc2[nH][nH]c(=O)c21
-1.5	CC(C)[C@@H]1Cc2[nH][nH]c(=O)c2[C@H](CCc2ccccc2)O1
-0.2	COCCNC(=O)C1CCCN(C(=O)c2cc(C)nn2C(C)(C)C)CC1 (stereo not given)
-1.2	CC(=O)Nc1ccc(-c2ccnc3c2CC(C(=O)NCCC(F)(F)F)O3)cc1 (stereo not given)
-4.8	Cn1ccc2c(-c3ccc(F)nc3)cc3c(c21)C1CCC3C1 (stereo not given)
9.6	COC(=O)c1ccc2nc(-c3ccco3)c(Cc3cccc(Cl)c3)n2c1
-1.4	CC1=C(C(=O)N2CCOCC2)CC(CC(=O)NCCc2ccccn2)C(=O)N1CCCN1CCCC1=O (stereo not given)
1.0	O=c1cc(CCc2ccccc2)[nH]c(=O)[nH]1
2.3	O=C(NCc1ccccc1Br)c1cccs1
5.4	CC(=O)c1c(C)[nH]c(C(=O)OC(C)C(=O)NC2CCCCC2)c1C (stereo not given)
2.1	CC(C)N1CCC(C)(C(=O)Nc2cc(-c3ccccc3)nn2C)C1 (stereo not given)
3.9	Cc1ccccc1-c1nc(NC(C)C)nc2ccsc12
2.0	Cc1cccc(S(=O)(=O)NC(=O)C2(C)CCN2C(=O)C/C=C/c2ccccc2)c1 (stereo not given)
-7.0	O=C(Oc1ccccc1)c1cc(O)c(O)c(O)c1
-5.2	CCCc1ccc(C(O)c2ncc(-c3cccc(F)c3)[nH]2)cc1 (stereo not given)
3.3	COc1ccccc1CNc1nc(NCc2ccc(NC(C)=O)cc2)c2sccc2n1
-3.9	C(=C\c1ccccc1)/CN1CCN(C(c2ccccc2)c2nnnn2Cc2ccccc2)CC1 (stereo not given)
-0.6	COc1ccc(-c2coc3c(C(=O)NCC4CCOCC4)cccc23)c(C)c1
-8.6	Brc1ccc2nc(C3CCCCC3)c(Cc3ccsc3)n2c1
1.4	C[C@@H]1CCCCO[C@H](CN(C)Cc2ccc(C(=O)O)cc2)[C@@H](C)CN([C@H](C)CO)C(=O)c2cc(N(C)C)ccc2O1
2.6	CCC(=O)N[C@H]1C=C[C@H](CC(=O)OC)O[C@@H]1CO
-1.6	COc1cc(NC(=O)c2ccc(-c3cn[nH]c3)c3ccoc23)cc(OC)c1OC
3.3	OC(c1ccc(Cl)c(Cl)c1)c1ncc(-c2ccccc2F)[nH]1 (stereo not given)
-2.0	C[C@@H](c1ccccc1)N1C[C@@H](COCc2ccccc2)Oc2cc(N3CC[C@@H](N(C)C)C3)ccc2S1(=O)=O
0.8	CO[C@H]1CN(C)C(=O)c2ccc(NC(=O)C3CCC3)cc2OC[C@H](C)N(Cc2ccccn2)C[C@@H]1C
-0.4	CCOC(=O)C1=CCC(c2ccccc2C)N(S(=O)(=O)c2ccc(C)cc2)C1 (stereo not given)
1.2	C=CCC(NC(=O)N(C)C)(C(C)=O)C(=O)OC (stereo not given)
1.5	Cc1c(C(=O)N2CCC2(C)C(=O)O)oc2ccccc12 (stereo not given)
-5.6	COc1ccc(-c2cc3nc(C)c(C)c(N4CCN(C(=O)c5ccoc5)CC4)n3n2)cc1
-3.2	O=C(Nc1ccc(Cl)cc1)c1cc(S(=O)(=O)N2CCCCC2)ccc1N1CCOCC1
0.7	CC1=C(C(=O)N(C(C)C)C(C)C)CC(CC(=O)NCC2CCCCC2)C(=O)N1Cc1ccc(C(C)(C)C)cc1 (stereo not given)
4.0	CN(C)c1ccc(CNC(=O)C2(C)Cc3c(-c4ccc(N(C)C)cc4)ccnc3O2)cc1 (stereo not given)
0.8	O=C(NCc1cccc(C(F)(F)F)c1)c1ccc2nc([C@H]3C[C@H](O)[C@@H](CO)O3)[nH]c2c1
2.6	CCCCC[C@H](C)N1C[C@@H](COCc2ccccc2)Oc2cc(N3CC[C@H](N(C)C)C3)ccc2S1(=O)=O
4.4	Nc1ccn(C2OC(CO)C(O)C2F)c(=O)n1 (stereo not given)
4.1	COc1cc(-c2coc3c(C(=O)NCc4ccncc4)cccc23)ccc1O
-4.5	CCOc1ccc(CCN2C(=O)C(=O)N([C@@H](CC(C)C)CN3CCC[C@H]3CN3C(=O)C(=O)NC[C@@H]3CC(C)C)C[C@@H]2Cc2ccccc2)cc1
-1.6	CC1(C(=O)Nc2ccc(Cl)cc2)Cc2c(-c3cccc(C(F)(F)F)c3)ccnc2O1 (stereo not given)
-2.8	Nc1sccc1C(=O)NCc1ccccc1
0.0	Cc1ccccc1Nc1nc(N)nc(COC(=O)c2ccc3c(c2)OCCO3)n1
2.3	CCOC(=O)C1=CCC(c2cccc(Cl)c2)N(S(=O)(=O)c2ccc(C)cc2)C1 (stereo not given)
4.6	CCOC(=O)[C@]12CCCC=C1N(Cc1cccc3ccccc13)C(=O)[C@H](CC(=O)NCC13CC4CC(CC(C4)C1)C3)C2
-3.3	CC1(C(=O)NS(=O)(=O)c2cccc(OC(F)F)c2)CCN1C(=O)C1CCCCC1 (stereo not given)
-2.0	Cc1ccc(OC2CCN(C(=O)[C@H]3O[C@@H](n4cnc5c(N)ncnc54)[C@H](O)[C@@H]3O)CC2)cc1
-3.7	C=CCn1c(SCC(=O)Nc2cc(C)on2)nnc1-c1ccncc1
-2.5	CC(O)(c1cccnc1)c1nc(-c2ccc(F)c(Cl)c2)cs1 (stereo not given)
0.6	CCCCCCCCN1C(=O)[C@H](CC(=O)NCCCOC)C[C@@]2(C(=O)OC)CCCCC=C12
-1.1	O=C(C[C@H]1C(=O)N(Cc2ccccc2)C[C@@H]1Cc1ccccc1)Nc1ccc(Br)cc1
2.6	CCCCNC(=O)c1c(N)[nH]c(C(=O)c2ccccc2)c1-c1ccccn1
0.0	Cc1ccccc1-c1cc2nc(Oc3ccc4c(c3)OCO4)n(C)c(=O)c2s1
4.7	CCN(CC)c1ncnc2c1ncn2[C@H]1CN(Cc2cccnc2)C[C@@H](CO)O1
-3.0	CCCCC[C@@H]1CCCCC[C@@H](O)C[C@H](O)[C@H](O)/C=C/C(=O)O1

# (continued)
HNF4A DNA FP	SMILES
-2.2	CC(=O)c1ccc(OCc2nnn(CC(=O)O)c2-c2ccccc2)cc1
3.2	COc1cccc(Cn2c(C(C)n3c(C)nc4ccccc43)nc3ccccc32)c1 (stereo not given)
-1.5	CN1CCN(c2ccc(CNC(=O)C3Cc4c(-c5ccccc5Oc5ccccc5)ccnc4O3)cc2)CC1 (stereo not given)
0.0	COCCN1C[C@@H](CO)O[C@@H](n2cnc3c(N4CCN(C)CC4)ncnc32)C1
0.2	COC[C@@H]1CCCN1c1ccc2c(c1)O[C@@H](COCc1ccccc1)CN([C@@H](C)c1ccccc1)S2(=O)=O
0.1	CC(=O)Nc1ccc(C(=O)N2CCCCC2c2cc(C(=O)NCc3ccccc3)no2)cc1 (stereo not given)
-1.4	COCCn1c(=S)[nH]c2cc(C(=O)NCc3ccccc3)ccc2c1=O
-1.5	Cc1cc2oc(=O)cc(CN3CCCCC3)c2cc1Cl
1.2	CC(CSC(=O)c1ccccc1)C(=O)N1c2ccccc2CC1C(=O)O (stereo not given)
-5.3	O=C(NCc1cccnc1)c1cc(C2CCCCN2C(=O)CCCc2ccccc2)on1 (stereo not given)
1.7	CCOC(=O)C1(C)CCCN(C(=O)c2ccccc2F)C1 (stereo not given)
-3.2	NNC(=O)CNC(=O)Nc1n[nH]c(=S)s1
3.7	CCCCCC(=O)N1C[C@@H](O)[C@H](n2cc(-c3ccc(F)cc3)nn2)C[C@@H]1c1ccc(C)cc1
0.9	CN(C)c1ncnc2c1ncn2[C@H]1CN(C2CCCC2)C[C@@H](CO)O1
0.0	CC(=O)c1ccc(OC2(C)CCN(Cc3ccc(OC(F)(F)F)cc3)C2)cc1 (stereo not given)
-1.8	Cc1ccc([C@H]2C[C@H](O)[C@@H](n3cc(-c4ccc(F)cc4)nn3)CN2CC2CCCCC2)cc1
2.3	COc1ccc(CNC(=O)C2Cc3c(-c4cccc(C(C)=O)c4)ccnc3O2)cc1OC (stereo not given)
-4.8	NC[C@H]1O[C@@H](n2ccc(N)nc2=O)[C@H](O)[C@@H]1O
-2.1	CSc1nsc(NN)n1
4.3	CCOC(=O)C1=CCN(S(=O)(=O)c2ccccc2F)C1c1ccc(Cl)cc1 (stereo not given)
-1.7	COC(=O)[C@@]12C[C@@H](CC(=O)N3CCSCC3)C(=O)N(CCc3ccc(OC)c(OC)c3)C1=CCC(C)(C)C2
0.7	CC1(C(=O)O)CCCN1C(=O)c1cccc(C(F)(F)F)c1 (stereo not given)
-3.1	COc1cccc(-c2oc3c(c2-c2ccc(Br)nc2)C(O)CCC3)c1 (stereo not given)
-5.7	CC(C)NC(=O)C1(C)CCN1Cc1cccc(C#N)c1 (stereo not given)
4.0	COc1cccc(Nc2nc(C(N)Cc3ccc(F)cc3)cs2)n1 (stereo not given)
-1.6	O=C1NC[C@H](CCCCN2CCN(CC3CCCCC3)C(=O)C2=O)N(CC2CCCCC2)C1=O
-1.8	O=C(NCc1ccco1)c1cccc(-c2ccc3nccn3c2)c1
-0.7	CC1(C)OC(=O)C2=C(C[C@@H](C3CCCC3)O[C@H]2CCc2cccc(Cl)c2)O1
0.8	Cc1cccc(C)c1NC(=O)C1(C)CSCC(=O)N1CCc1ccccc1F (stereo not given)
3.0	CN(C)CCNC(=O)c1cccc(-c2cnc3c(NC=O)cc(-c4ccc(S(C)(=O)=O)cc4)cn23)c1
3.6	CC(C)NC(=O)C1(C)CCN1Cc1ccc(C(F)(F)F)cc1 (stereo not given)
-0.6	COc1cc(F)ccc1-c1cc(C(=O)NCc2ccc(C(F)(F)F)cc2)[nH]n1
2.4	CCOC(=O)[C@]12CCCC=C1N(Cc1ccc(Cl)cc1Cl)C(=O)[C@H](CC(=O)NCc1cccs1)C2
4.0	COc1ccc(C(c2nnnn2-c2ccc(OC)cc2)N2CCN(C/C=C/c3ccccc3)CC2)cc1 (stereo not given)
-5.5	NS(=O)(=O)c1ccc(NC(=S)Nc2ccc(S(=O)(=O)Nc3nccs3)cc2)cc1
1.0	Cc1ccc(NCC(=O)Nc2ccc(F)c(Cl)c2)cc1S(=O)(=O)N1CCOCC1
-5.0	CCOC(=O)C1(C)CCCN1C(=O)c1cc(F)ccc1C (stereo not given)
-0.8	COCCNc1nc(NCCOc2ccccc2Cl)c2sc(-c3ccccc3)cc2n1
-0.7	CC1(C(=O)Nc2cccc(C(F)(F)F)c2)Cc2c(-c3cccc(C(N)=O)c3)ccnc2O1 (stereo not given)
-1.6	CC1=C(C(=O)Nc2ccc(C(=O)NCCCN3CCCCC3C)cc2)SCCO1 (stereo not given)
-3.0	CN(C(=O)C1Cc2c(-c3ccc(Cl)cc3)ccnc2O1)c1ccccc1 (stereo not given)
1.4	CNc1cccc(-c2cc(OC)c(OC)c(OC)c2)n1
6.3	COc1cccc(C(N)c2nc(-c3cc(F)cc(F)c3)cs2)c1 (stereo not given)
-2.3	Cc1ccsc1C(=O)N1CCC1(C)C(=O)NS(=O)(=O)c1cccc(F)c1 (stereo not given)
-0.5	CCCCC(=O)N(C)c1c(C)nc2ccc(C(=O)N3CCN(C(C)=O)CC3)cn12
11	Cc1cc(Br)cn2c(Cc3cccc(Cl)c3)c(-c3cccc(Cl)c3)nc12
-1.9	Cn1nc(C(C)(C)C)cc1C(=O)N1CCCCC1c1cc(C(=O)Nc2ccccc2)no1 (stereo not given)
0.7	CCOc1ccccc1C(=O)Nc1nnc(SCC(=O)N2CCCC2)s1
1.9	C[C@H](NC(=O)[C@@H]1CCCN1C(=O)[C@@H]1CCCN1C(=O)c1cccc2ccccc12)c1ccccc1
1.9	O=C(CN1C(=O)CSc2ccc(S(=O)(=O)N3CCOCC3)cc21)NCc1c(F)cccc1Cl
2.6	Cc1ccc(F)c(S(=O)(=O)NC(=O)C2(C)CCN2C(=O)Cc2ccc(-c3ccccc3)cc2)c1 (stereo not given)

# Entries above that contain an NH in an aromatic ring:
HNF4A DNA FP	SMILES
-0.9	COc1ccccc1CNC(=O)c1cc(-c2cc(F)ccc2OC(C)C)n[nH]1
1.0	C[C@@H]1O[C@H](C2CCCCC2)Cc2[nH][nH]c(=O)c21
-1.5	CC(C)[C@@H]1Cc2[nH][nH]c(=O)c2[C@H](CCc2ccccc2)O1
1.0	O=c1cc(CCc2ccccc2)[nH]c(=O)[nH]1
5.4	CC(=O)c1c(C)[nH]c(C(=O)OC(C)C(=O)NC2CCCCC2)c1C (stereo not given)
-5.2	CCCc1ccc(C(O)c2ncc(-c3cccc(F)c3)[nH]2)cc1 (stereo not given)
-1.6	COc1cc(NC(=O)c2ccc(-c3cn[nH]c3)c3ccoc23)cc(OC)c1OC
3.3	OC(c1ccc(Cl)c(Cl)c1)c1ncc(-c2ccccc2F)[nH]1 (stereo not given)
0.8	O=C(NCc1cccc(C(F)(F)F)c1)c1ccc2nc([C@H]3C[C@H](O)[C@@H](CO)O3)[nH]c2c1
2.6	CCCCNC(=O)c1c(N)[nH]c(C(=O)c2ccccc2)c1-c1ccccn1
-1.4	COCCn1c(=S)[nH]c2cc(C(=O)NCc3ccccc3)ccc2c1=O
-3.2	NNC(=O)CNC(=O)Nc1n[nH]c(=S)s1
-0.6	COc1cc(F)ccc1-c1cc(C(=O)NCc2ccc(C(F)(F)F)cc2)[nH]n1

# A portion of the library (hit frequency here may not be typical).
